Compound activity as filed in PubChem.
Bfl-1 A1 inh – inhibitors of the anti-apoptotic protein A1, read as caspase activation. caspase activation, % (test concentration not listed). MEF A1-2A-BIM cells, Caspase-Glo 3/7 luminescence, 3 h; percent of clofoctol response, vehicle zero. 0.066% of 330,000 active. AID 2462;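 active = over half of replicate activation scores above 10%, or exactly half above 10 with the replicate mean above 10; inconclusive = replicate mean below 10 yet half the replicates above 10; inactive = over half of replicates below 10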;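 also: wells of about 30 µL received 50 nL stock; many hits fall short of the cut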
Ecoli growth – blocks Escherichia coli growth; OD600, 23 h; active compounds read low; OD600 absorbance (concentration not given with the values); 0.21% of 330,000 active;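 active = OD600 absorbance below the run mean of sample wells minus 3.6 SD, in any replicate, cut at about 0.56 in these data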;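 also: stock transfer was 300 nL into about 60 µL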
UCH37 DUB inh – inhibitors of human deubiquitinating enzyme UCH37; Q9Y5K5; purified proteasome/UCH37, Ub-AMC cleavage fluorescence; inhibition, % (concentration not given with the values); 0.33% of 330,000 active; AID 588478;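 active = mean of two replicates above 20%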;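 also: 0% = compound-free wells with enzyme and 100% = wells lacking proteasome; stock transfer was 100 nL into about 20 µL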
Target sequence (Q9Y5K5 whole entry, looked up): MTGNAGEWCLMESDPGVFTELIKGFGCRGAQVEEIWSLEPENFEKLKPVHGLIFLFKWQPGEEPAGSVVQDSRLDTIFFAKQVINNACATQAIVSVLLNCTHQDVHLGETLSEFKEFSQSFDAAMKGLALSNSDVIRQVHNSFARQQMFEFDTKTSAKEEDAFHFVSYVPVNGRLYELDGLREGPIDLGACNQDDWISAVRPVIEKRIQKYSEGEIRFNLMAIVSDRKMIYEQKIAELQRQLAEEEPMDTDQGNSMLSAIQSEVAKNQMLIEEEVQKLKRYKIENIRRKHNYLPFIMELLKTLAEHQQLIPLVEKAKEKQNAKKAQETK
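Material: Human UCH37 enzyme supplied as purified proteasome complex | Schedule: 30 min compound-proteasome preincubation then 25 min substrate reaction, room temperature | Detection: AMC fluorescence from Ub-AMC cleavage, excitation 355 nm, emission 460 nm | Benchmarks: Wells without proteasome as full block, compound-free enzyme plus substrate as uninhibited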
Beta2AR agonist – agonists of human beta-2 adrenergic receptor inducing internalization | P07550 | Am2.2-beta2AR cells, FAP receptor internalization, flow cytometry; reference of the scale not given here | response, % (concentration not given with the values) | 0.43% of 340,000 active | AID 504454;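 active = response above a set limit, near 3 SD of response in nonfluorescent compounds, cut at about 42% in these data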;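 also: stock transfer was 100 nL into about 11 µL; a reference agonist was the positive control; negative values mostly stem from fluorescent compounds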
LANA-H2A inh – blocks KSHV LANA binding to histone H2A/H2B; Q9QR71; AID 2629; inhibition, % (concentration not given with the values); cell-free LANA-H2A/H2B peptide, fluorescence polarization; 0.6% of 320,000 active; in the data active = inhibition mostly above about 10%, no sharp cut-off; inactive = mostly below about 6.7%;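 also: stock transfer was 7.5 nL into about 10 µL; 0% = median of vehicle wells and 100% = median of positive control wells; one replicate is shown; the record names a cut of 25% in any replicate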
Vif TR-FRET – inhibitors of Vif binding to APOBEC3G peptide, primary screen, biochemical, TR-FRET, GST-Vif 1-94, biotin-A3G peptide, dose response retest (AID 1117319); TR-FRET GST-Vif / biotin-A3G peptide binding; higher % means a stronger effect; test concentration not given here; strong numbers were not always called active; one-dose inhibition, %; IC50 in µM for titrated hits; 0.57% of 260,000 active;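 active = above the screen mean plus three standard deviations and confirmed in dose response; inconclusive = results disagree or hit not tested in dose response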;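 also: Vif residues 1-94 fused to GST binding biotinylated APOBEC3G peptide 110-148; 0% = full assay without inhibitor and 100% = GST in place of GST-Vif; retest series ran down from 100 µM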
HNF4A DNA FP – change in binding of human HNF4 alpha to DNA; HNF4a-FITC DNA binding, fluorescence polarization, 1 h; activity change, % at 10 µM; 0.3% of 360,000 active; P41235; in the data active = activity change above about 30%, passing the limit was not always enough;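 also: controls were the assay level and a saturating level of protein; the project sought stronger binding though the title names inhibitors; some compounds called inactive have numbers as strong as hits; positive values seem to mean higher polarization but the record does not say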
Target sequence (P41235 whole entry, looked up): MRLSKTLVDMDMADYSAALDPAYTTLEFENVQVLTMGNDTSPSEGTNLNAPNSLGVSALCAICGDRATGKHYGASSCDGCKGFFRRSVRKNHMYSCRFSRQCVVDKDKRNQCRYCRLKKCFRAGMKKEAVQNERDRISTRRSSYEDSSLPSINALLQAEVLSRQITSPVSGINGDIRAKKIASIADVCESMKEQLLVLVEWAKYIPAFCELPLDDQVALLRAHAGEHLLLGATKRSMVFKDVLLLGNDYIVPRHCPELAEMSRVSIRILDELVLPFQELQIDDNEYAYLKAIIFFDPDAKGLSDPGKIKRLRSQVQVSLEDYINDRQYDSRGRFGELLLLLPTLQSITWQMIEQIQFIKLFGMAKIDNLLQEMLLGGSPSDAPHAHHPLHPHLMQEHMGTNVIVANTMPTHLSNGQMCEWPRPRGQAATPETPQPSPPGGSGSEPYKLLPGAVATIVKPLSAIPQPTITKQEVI
* = called active by the depositor; ? = inconclusive; · = not tested or not shown; & = joins results of further samples. Outcome played no part in choosing rows; any-hit rate near 2.1%.

Compound | Bfl-1 A1 inh | Ecoli growth | UCH37 DUB inh | Beta2AR agonist | LANA-H2A inh | Vif TR-FRET | HNF4A DNA FP
Cc1noc(C)c1COC(=O)CCc1nc2ccccc2s1 | -0.4 | 0.72 | 3.6 | 3 | -4.8 | 7% | -2.8
CC1CCN(S(=O)(=O)c2ccc(S(=O)(=O)NCc3ccccc3)cc2)CC1 | 0.1 | 0.7 | -1.7 | 4 | -6.4 | -5% | 1.1
CN(CCc1ccccn1)C(=O)c1cc(COc2ccc(F)cc2F)on1 | 0.2 | 0.7 | 4.4 | -6 | -1.0 | 0% | 2.5
O=C(NC12CC3CC(CC(C3)C1)C2)c1cc(F)c(F)cc1Cl | 0.7 | 0.67 | -0.3 | -8 | -2.9 | · | 0.4
Cn1c(=O)c2c(n(C)c1=O)=NC1(CCCCC1)ON=2 | 0.4 | 0.78 | 3.2 | 6 | 0.3 | -4% | 0.9
Cc1ccc(-n2cc(CN(C)Cc3nccn3C)c(-c3ccc(F)cc3)n2)cc1 | 0.3 | 0.67 | 3.0 | -9 | -5.7 | -5% | 6.9
COc1ccccc1N=Nc1c(C)noc1C | -0.4 | 0.68 | 6.7 | -10 | 0.5 | -5% | 4.6
Cc1ccc([N+](=O)[O-])cc1NC(=O)c1ccccc1 | 0.8 | 0.69 | 3.3 | 6 | -0.2 | · | -3.1
Cc1cc(C(F)(F)F)c(C#N)c(SCC(=O)NC2CC2)n1 | 0.5 | 0.71 | 0.9 | 1 | 0.8 | 1% | 5.7
Cc1nn(-c2ccccc2)c2sc(C(=O)N(CC(=O)NC(C)(C)C)Cc3ccco3)cc12 | 0.4 | 0.7 | 0.4 | 21 | 0.4 | -9%&-2% | -4.9
Cc1ccsc1/C=C1/SC(=O)N(CC(=O)N2CCCC2)C1=O | -1.6 | 0.74 | 11 | 10 | -2.0 | · | -3.3
COc1ccc(S(=O)(=O)NCc2csc(-c3cccnc3)n2)cc1 | -0.1 | 0.72 | 4.2 | -5 | 2.4 | -4% | 1.2
Cc1cc(C)c(S(=O)(=O)NCc2ccc3c(c2)cc(C)n3C)c(C)c1 | 0.7 | 0.75 | 4.5 | -8 | 3.3 | -7% | -6.7
O=C(CSc1nnc(Cc2cccs2)n1Cc1ccco1)Nc1ccc(Br)cc1 | -0.6 | 0.69 | 2.7 | -3 | 3.4 | 2%&5% | 2.3
CSCCC(=O)N1CCN(CC(=O)N2CCCC2)CC1 | -0.5 | 0.71 | -0.1 | 2 | 1.4 | · | 1.1
Cc1cc([N+](=O)[O-])nn1CC(=O)N1CCN(Cc2ccccc2)CC1 | -0.1 | 0.68 | 0.5 | -4 | 1.1 | · | 4.6
CC(=O)OC1(C(C)=O)CCC2C3CC4OC45CC(O)CCC5(C)C3CCC21C (stereo unspecified) | · | 0.6 | -0.5 | 0 | · | -6% | 0.8
Cc1ccc(S(=O)(=O)N(CC(=O)N2CCN(c3ccccc3F)CC2)C2CCCCC2)cc1 | · | 0.72 | -0.6 | 2 | -5.8 | -10% | -3.3
Cc1c(NC(=O)COC(=O)Cn2cc(C(F)(F)F)ccc2=O)cccc1[N+](=O)[O-] | -0.7 | 0.69 | 3.0 | 11 | 6.5 | 19% | -2.7
COc1ccc(C=NCCC2(O)CC(C)N(C)CC2C)cc1 (stereo unspecified) | 1.0 | 0.72 | 4.4 | -4 | -0.7 | ? | -4.9
Nc1nc(=S)c2ncn(C3CCCCC3)c2[nH]1 | · | 0.68 | 9.4 | 8 | · | -9% | -0.7
COc1ccc(C2/C(=C(/O)c3ccc4c(c3)CC(C)O4)C(=O)C(=O)N2CCCN2CCOCC2)cc1OC (stereo unspecified) | 0.1 | 0.72 | 7.6 | -1 | 6.1 | 0% | 3.1
Cc1ccc(/C=N/NC(=O)C2CC(=O)N(c3ccccc3)C2)s1 (stereo unspecified) | -0.7 | · | · | -5 | 6.3 | · | 0.1
CCN(CC)CCn1c2ccccc2c2n[nH]c(=S)nc21 | 0.7 | 0.7 | 9.1 | -4 | -0.8 | · | 0.9
CCn1cnc2c([N+](=O)[O-])c(NS(=O)(=O)c3ccc(C)cc3)ccc21 | 0.5 | 0.69 | -0.1 | 0 | -0.7 | · | 0.7
Cn1c(=O)[nH]c(=O)c2c1nc(NCCc1ccccc1)n2CC(O)COc1ccccc1 (stereo unspecified) | -0.3 | 0.79 | -1.4 | -9 | 6.2 | 2% | -1.8
Cc1c(NC(=S)N/N=C/c2ccc(Br)cc2)c(=O)n(-c2ccccc2)n1C | 0.0 | · | · | 6 | -5.2 | · | 1.1
CCCNCC1C(Oc2ccc(Cl)cc2Cl)C(=O)N1c1cccc(C)c1C (stereo unspecified) | 0.7 | 0.64 | 1.2 | 2 | -3.3 | -2% | 0.8
Cc1noc(NC(=O)c2ccc(Cl)c(Cl)c2)c1Cl | -0.1 | 0.63 | 6.7 | 6 | 5.7 | 1% | 0.3
NC(=S)NN=C1CCSCC1 | · | 0.68 | 4.0 | 9 | · | 5% | 3.3
CC1CCC(C(=O)NC(C(=O)NCc2ccccn2)C(C)C)CC1 (stereo unspecified) | -0.8 | 0.7 | 5.6 | -6 | -1.1 | -4% | 2.2
Cc1ccc(N(CC(=O)Nc2cc(C)cc(C)c2)S(=O)(=O)c2cccc3nonc23)cc1 | 1.2 | 0.71 | 3.4 | 6 | -0.1 | 3% | -0.9
CCn1cc(C(=O)NP(=O)(Nc2ccc(C)cc2)Nc2ccc(C)cc2)c2ccccc21 | -0.3 | 0.71 | -3.9 | 25 | 3.4 | 17% | -1.6
CCn1c(SCC(=O)c2ccccc2)nnc1-c1cnccn1 | 0.2 | 0.69 | 0.7 | -6 | -1.6 | 12% | -2.3
O=C(Nc1ccc2ccccc2c1)Nc1ccc2snnc2c1 | -2.7 | 0.7 | -2.4 | 24 | 3.1 | 12% | -3.0
COC(=O)CN1CCN(C(=O)c2ccc(F)cc2)c2ccccc2C1 | -0.3 | 0.73 | 4.2 | 13 | 0.5 | 8% | 0.4
Cc1ccnc(SC2CC(=O)N(c3ccc(F)cc3)C2=O)n1 (stereo unspecified) | -0.2 | 0.61 | 2.3 | 1 | 7.5 | -4% | -0.3
O=C(CSc1ncn(-c2ccccc2)n1)Nc1nccs1 | -0.8 | 0.74 | 4.4 | 10 | -2.2 | 13% | -0.9
CN(c1ccccc1)S(=O)(=O)c1cccc(NC(=O)c2nn(C)c(=O)c3ccccc23)c1 | · | 0.72 | 1.8 | 25 | · | 3% | -0.1
COc1ccc(-c2cn[nH]c2-c2ccc(OCC(=O)NN)cc2O)cc1 | 0.7 | 0.67 | 3.2 | 4 | 2.9 | -5% | 6.6
Cc1ccc2c(c1)C=CC(C)(C)S2(=O)=O | 0.2 | 0.66 | -1.0 | 1 | 0.7 | -19% | -0.3
COc1nc(OC)nc(N2CCC(C(=O)NC3CCCCCC3)CC2)n1 | 0.0 | 0.68 | 1.5 | -1 | -3.2 | -1% | -2.1
CC(C)C(=O)Nc1cccc(NC(=O)c2cccnc2)c1 | -0.2 | 0.7 | 0.9 | -3 | 1.2 | 19% | 0.8
Nc1nc2ccccc2n1CCN1CCCC1 | -0.1 | 0.69 | 3.8 | 11 | 4.0 | -1% | 1.5
CCCNC(=O)c1nnsc1S(=O)(=O)c1ccc(Cl)cc1 | · | 0.69 | 3.8 | 81* | · | -28% | 3.6
COc1ccc(NC(=S)N2CCC(C(=O)N3CCCCCC3)CC2)cc1 | 0.7 | 0.64 | -0.4 | 1 | -4.2 | -8% | 1.6
Cc1cc(NC(=O)CCC(=O)N(Cc2cccs2)C(C)(C)C(=O)NC2CCCCC2)no1 | 0.2 | 0.67 | 0.1 | -7 | -7.9 | · | 4.8
CCOC(=O)c1cc(C#N)c(N2CCN(C(=O)c3cccc(C(F)(F)F)c3)CC2)nc1C(F)(F)F | 1.0 | 0.65 | -7.6 | -1 | -4.6 | ? | -1.0
O=C(O)c1ccccc1C(=O)c1ccc(-c2ccccc2)cc1 | 2.3 | 0.68 | 3.3 | -3 | -9.2 | -1% | 1.1
O=C(CN1CCN(S(=O)(=O)c2ccc(F)c(Cl)c2)CC1)N1CCNC1=O | 1.6 | 0.68 | -1.0 | 3 | -6.0 | 2% | 2.9
O=C(CSc1ccsc1[N+](=O)[O-])Nc1cc(F)ccc1F | · | 0.67 | 5.0 | 5 | · | ? | -24
O=C1c2ccncc2C(=O)N1Cc1cccc(Cl)c1 | 1.1 | 0.74 | 0.9 | -6 | -3.8 | 21% | -3.9
CC(Oc1ccccc1F)c1nnc(SCC(=O)N(c2ccccc2)C2CCS(=O)(=O)C2)o1 (stereo unspecified) | 0.5 | 0.65 | -2.4 | -4 | -5.5 | · | 2.6
COc1ccc(Br)cc1/C=C/C(=O)Nc1c(C)cccc1C | 0.1 | 0.72 | -2.6 | 3 | -0.3 | -1% | -3.5
Cc1ccc(NC(=O)/C(=C/c2cccc([N+](=O)[O-])c2)NC(=O)C2CCCCC2)c(C)c1 | 0.6 | 0.72 | 2.3 | 6 | -5.4 | -13% | 1.5
CCN(CC)c1ccc(/C=C2\C(=O)N(c3nnc(C)c(=O)[nH]3)N=C2C)cc1 | 0.4 | 0.73 | 2.7 | -34 | 3.7 | 76% | -5.3
CCN(C(=O)COC(=O)c1cc([N+](=O)[O-])ccc1N1CCOCC1)C1CCCCC1 | 0.1 | 0.73 | 6.1 | -2 | · | 4% | -5.9
O=C(NCc1ccccc1)c1ccc(-c2ccccc2C(F)(F)F)o1 | 0.1 | 0.67 | -1.9 | -4 | -2.0 | ? | 3.5
CCSc1nnc(NC(=O)C2CCN(S(=O)(=O)c3c(C)c(C)cc(C)c3C)CC2)s1 | -1.1 | 0.73 | -1.4 | · | 2.5 | -7% | ·
CCOc1ccc(OCC)c(NC(=O)CNS(=O)(=O)c2cccs2)c1 | 0.4 | 0.68 | 0.4 | 0 | 1.0 | 2% | 2.9

The results go on.
Compound | Bfl-1 A1 inh | Ecoli growth | UCH37 DUB inh | Beta2AR agonist | LANA-H2A inh | Vif TR-FRET | HNF4A DNA FP
N#CC1=C(N)N(c2ccc(F)cc2)C2=C(C1c1ccc(O)cc1)S(=O)(=O)CC2 (stereo unspecified) | · | 0.67 | 2.9 | -1 | · | ? | 55*
COC(=O)c1cc(NC(=O)CN(C)C2CCS(=O)(=O)C2)cc(C(=O)OC)c1 (stereo unspecified) | -1.1 | 0.69 | 2.4 | 11 | -5.2 | 2% | 1.2
N#CCCn1cc(CNC2CCC(O)CC2)c2ccccc21 (stereo unspecified) | -0.1 | 0.65 | 4.9 | 1 | 4.0 | · | -0.9
COCCNC(=S)N(c1ccccc1)C(C)C | 1.6 | 0.71 | 4.0 | -7 | -0.4 | -4% | 1.2

Rewritten with values under each structure: part of the list above.
Values run as follows: Bfl-1 A1 inh | Ecoli growth | UCH37 DUB inh | Beta2AR agonist | LANA-H2A inh | Vif TR-FRET | HNF4A DNA FP
N#CCCn1cc(CNC2CCC(O)CC2)c2ccccc21 (stereo unspecified)
  -0.1 | 0.65 | 4.9 | 1 | 4.0 | · | -0.9
N#CC1=C(N)N(c2ccc(F)cc2)C2=C(C1c1ccc(O)cc1)S(=O)(=O)CC2 (stereo unspecified)
  · | 0.67 | 2.9 | -1 | · | ? | 55*
